gsp ag = qHTS for Agonist of gsp, the Etiologic Mutation Responsible for Fibrous Dysplasia/McCune-Albright Syndrome: qHTS; gsp mutant cells, cAMP HTRF, 30 min; control for the full effect not named in the record; Potency, µM (series often up to 76.9 µM), without a hit: at the top dose activation (cAMP increase), actives largely listed as activators; actives 0.13% (n = 340,000); AID 624287, 2012; active = well fitted activation curve with a large enough effect; inconclusive = small, poorly fitted or top-dose-only effect, or another doubt; inactive = no such curve, though single readings can be large or run the other way; cell line not stated here;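 note: phosphodiesterase inhibitor Ro 20-1724 added with compounds to block cAMP breakdown; potency is the fitted concentration of half-maximal effect; nearly all actives have a fitted effect of over 60% in size; about a fifth of the inactives were tested at one dose only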
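Cells in DMEM/10% FBS with G418 were pretreated with compounds in DMSO plus […] (300 uM stock) for 30 min at 37C. cAMP was measured by HTRF (cAMP-d2 plus anti-cAMP antibody-K) after 30 min at room temperature.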
D2 PAM = Beta-Arrestin HTS for Positive Allosteric Modulators of the Human D2 Dopamine Receptor: Potentiators; D(2) dopamine receptor (Homo sapiens), P14416; DiscoveRx D2 beta-arrestin cells, luminescence, 90 min; 100% = 57 uM dopamine signal; potentiation, % (test concentration not listed); actives 0.23% (n = 360,000); AID 624464, 2012; active = potentiation of 50% or more; inconclusive = 30% to 50%; inactive = 30% or less;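 note: compound concentration not given in the record; tested on top of an EC20 dose of dopamine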
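PathHunter beta-arrestin assay in DiscoveRx D2 cells. Compounds were added with an EC20 of dopamine (50 nM final) for 90 min at 37 deg C. Luminescence was read 1 h after detection reagent, with 57 uM dopamine as the EC100 control.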
Sfp PPTase inh = qHTS Assay for Inhibitors of Bacillus subtilis Sfp phosphopantetheinyl transferase (PPTase) | actives 3.5% (n = 310,000) | 4'-phosphopantetheinyl transferase ffp (Bacillus subtilis), Q9F4F7 | Biochemical Sfp PPTase activity, qHTS | Potency, µM, inactives show max response, negative = inhibition, hits mostly inhibitors; active = well fitted inhibition curve with a large enough effect; inconclusive = small, poorly fitted or top-dose-only effect, or another doubt; inactive = no such curve, though single readings can be large or run the other way;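 note: the enzyme is Sfp with the accession as filed and its product quenches rhodamine fluorescence; potency is the fitted concentration of half-maximal effect; 0% = enzyme reaction without inhibitor and -100% = no enzyme wells; top concentration of the series not given in the record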
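After 15 min at room temperature with compound, 15 nM Sfp received 5 uM rhodamine-CoA plus 12.5 uM BHQ-2-ybbR (50 mM Hepes pH 7.6, 10 mM MgCl2). Rate came from the fluorescence difference over 30 min, ex 525/em 598 nm.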
ClpP mod = qHTS Assay for Activators of ClpP; ATP-dependent Clp protease proteolytic subunit (Bacillus subtilis (strain 168)), P80244; purified B. subtilis ClpP, FRET peptide cleavage, 20 min; Potency, µM (top dose mostly 57.5 µM), without a hit: at the top dose activity change, negative = active; actives 1.9% (n = 340,000); AID 651965, 2013; active = well fitted falling curve with a large enough effect; inconclusive = small, poorly fitted or top-dose-only effect; inactive = no such curve, though single readings can be large or run the other way; note: potency is the fitted concentration of half-maximal effect; the source files actives as falling curves though it sought activators and does not explain the sign; nearly all actives have a fitted effect of over 65% in size; many hits overshoot -100%
Target sequence (P80244 whole entry, looked up): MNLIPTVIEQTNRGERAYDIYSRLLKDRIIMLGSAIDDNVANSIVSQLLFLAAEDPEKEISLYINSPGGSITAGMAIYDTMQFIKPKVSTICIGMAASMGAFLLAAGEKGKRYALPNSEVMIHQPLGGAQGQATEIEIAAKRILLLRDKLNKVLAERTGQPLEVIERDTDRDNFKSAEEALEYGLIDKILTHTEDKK
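FRET quenching reversal measured ClpP activation: 10 microg/mL B. subtilis ClpP at pH 8 with the FRET-FV decapeptide, read at 430 nm after 320 nm excitation. The 20-min minus 0-min signal was scaled between DMSO/no-enzyme wells and ADEP (5.8 microM final).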
gsp antagonist = qHTS for Antagonists of gsp, the Etiologic Mutation Responsible for Fibrous Dysplasia/McCune-Albright Syndrome: qHTS; actives 0.4% (n = 340,000); gsp-mutant cells, cAMP HTRF, 30 min; control for the full effect not named in the record; Potency, µM (series often up to 76.9 µM), inactives show at the top dose activity change, negative = inhibition, actives largely listed as inhibitors; active = falling curve of any shape with a large fitted effect; inconclusive = falling curve, mostly with a smaller effect; inactive = flat or rising curve; cell line not stated here;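 note: intracellular cAMP measured with PDE inhibitor Ro 20-1724 present during compound exposure; potency is the fitted concentration of half-maximal effect; % is set by controls: 0 for no effect and ±100 for the full control effect; nearly all actives have a fitted effect of over 65% in size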
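Measurement of cellular cAMP by homogeneous time-resolved fluorescence following a 30 min compound exposure at 37C. The PDE inhibitor […] was present throughout; the assay buffer was DPBS with 0.05% BSA and 0.005% Tween 20.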
Menin MLL FP FL = qHTS Assay for Inhibitors Targeting the Menin-MLL Interaction in MLL Related Leukemias: Competition With Fluorescein Labeled MLL-derived Peptide; 290,000 tested, under 10 active; FP activity change, % at 61.4 µM; AID 1766, 2009; Fluorescence polarization, fluorescein-MLL peptide displacement from menin; inconclusive = falling polarisation curve, or a change in total fluorescence; inactive = total fluorescence flat and polarisation flat or rising; no compound was filed as active; the % refers to the polarisation; negative = inhibition;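 note: % of control where 0% means no effect; inhibitors lower the polarisation; unlabelled MLL peptide was the positive control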
TRPV1 PAM = HTS Assay for Compounds that Act as Potentiators of the Vanilloid Receptor 1. potentiation, % at 8.33 µM. TRPV1-expressing cells, Fluo-8 calcium influx, capsaicin EC20 potentiation; host cell line not named in the record; control for the full effect not named in the record. AID 540277, 2011. actives 0.02% (n = 320,000). Transient receptor potential cation channel subfamily V member 1 (Homo sapiens), Q8NER1; active means potentiation above 80%; inconclusive means 30% to 80%; inactive means below 30%; note: 0% is about no effect
Target sequence (Q8NER1 whole entry, looked up): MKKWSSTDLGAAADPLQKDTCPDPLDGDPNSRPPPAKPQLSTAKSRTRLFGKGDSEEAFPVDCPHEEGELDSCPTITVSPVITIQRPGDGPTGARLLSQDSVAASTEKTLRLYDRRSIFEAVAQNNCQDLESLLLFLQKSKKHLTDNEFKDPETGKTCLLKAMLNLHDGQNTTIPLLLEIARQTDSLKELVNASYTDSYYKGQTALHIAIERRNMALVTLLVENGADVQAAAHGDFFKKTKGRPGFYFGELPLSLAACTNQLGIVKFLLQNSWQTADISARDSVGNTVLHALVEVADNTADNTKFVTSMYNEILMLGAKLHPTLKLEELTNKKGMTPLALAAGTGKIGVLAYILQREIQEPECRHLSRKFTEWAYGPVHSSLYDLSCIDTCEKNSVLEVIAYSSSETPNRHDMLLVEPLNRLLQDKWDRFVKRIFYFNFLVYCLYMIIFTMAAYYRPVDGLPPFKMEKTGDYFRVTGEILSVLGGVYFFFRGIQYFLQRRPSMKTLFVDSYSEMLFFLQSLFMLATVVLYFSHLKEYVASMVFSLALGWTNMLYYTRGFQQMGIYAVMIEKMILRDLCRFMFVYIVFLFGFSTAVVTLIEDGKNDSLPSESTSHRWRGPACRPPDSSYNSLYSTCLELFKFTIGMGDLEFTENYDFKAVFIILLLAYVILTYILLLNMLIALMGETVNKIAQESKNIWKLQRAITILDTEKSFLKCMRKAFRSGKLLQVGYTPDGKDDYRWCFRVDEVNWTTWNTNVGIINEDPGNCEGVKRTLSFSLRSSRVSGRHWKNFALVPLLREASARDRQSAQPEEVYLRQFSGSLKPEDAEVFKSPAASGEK
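TRPV1-expressing cells were cultured overnight at 35.5C and loaded with Fluo-8 calcium dye for 40 to 90 min at room temperature. After a 10 s baseline, compound was added and calcium influx was read kinetically for 3 min (ex 480/em 520 nm).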
An asterisk follows results filed as active; ? = inconclusive; · = not tested or not shown; & = joins results of further samples; [ ] = remark or other dose.

smiles	gsp ag	Menin MLL FP FL	Sfp PPTase inh	ClpP mod	D2 PAM	gsp antagonist	TRPV1 PAM
CCOC(=O)N1CCc2c(sc(NC(=O)Cc3ccccc3)c2C(=O)c2ccc(OC)cc2)C1	21%	4.5	-12%	2.4%	-9	-29%	-13
COc1cc2c(cc1OC)C1(CCCC1)C(N)=C2C#N	2%	4.3	-4%	15%	-13	6%	-3
O=C(Nc1c2c(nn1-c1ccc(F)cc1)CS(=O)(=O)C2)c1ccc(Br)o1	6%	·	-1%	1.3%	-7	-4%	3
CCOC1Cc2ccccc2N(C(N)=O)c2ccccc21 (stereo not given)	-24%	-0.8	19%	0.4%	-5	-2%	5
CN(C)S(=O)(=O)c1ccc(C(=O)NCCSc2ccccc2)cc1	-19%	5.8	29%	1.4%	-8	-22%	1
COCCCNc1nc(N)c([N+](=O)[O-])c(NC2CCCCC2)n1	39%	0.2	10%	-1.7%	-4	12%	1
Clc1ccc(-n2ncc3c(NCc4cccs4)ncnc32)cc1	-7%	1.8	12%	?	2	9%	3
CCOc1ccc(-c2onc(C(F)(F)F)c2-c2cscn2)c(O)c1	-81%[inhibitor]	1.6	-10%	-1.7%	6	-24%	22
Cc1cc(C(=O)NC2CCCC2)on1	9%	7.7	17%	2.1%	-1	7%	-2
COC(=O)c1ccccc1NC(=O)C12CCC(C)(C(=O)O1)C2(C)C (stereo not given)	-2%	4.3	4%	-18%	-6	-3%	?
Cn1cccc1/C=C(/C#N)C(N)=S	-16%[15.4 µM]	·	-2%	0.5%	-23	8%	6
COC(=O)c1cccc(Nc2nc3ccccc3nc2C)c1	-41%	3.3	?	-1.9%	-7	-4%	-17
COc1cc(OC)c(S(=O)(=O)N2CCN(C(=O)c3ccco3)CC2)cc1NC(C)=O	2%[15.4 µM]	-3.9	3%	1.8%	-5	6%	-2
CCCN(c1ccc(OCC)cc1)c1ncnc2nc[nH]c12	0%	-0.4	10%	2.2%	-2	-18%	4
O=C(N/N=C/c1cccc([N+](=O)[O-])c1)c1ccc(Br)cc1	-6%	-0.6	14%	·	-9	-9%	0
O=C(CSc1nnnn1C1CCCCC1)NCc1ccc2c(c1)OCO2	-2%	5.0	10%	0.8%	-7	1%	-3
Cc1ccc2c(c1)C(=O)C(=O)N2Cc1ccc(Cl)cc1	·	·	·	-3.7%	-24	17%	·
CCOC(=O)c1c(-c2ccccc2)nc2ccc(Cl)cn12	0%	2.6	5%	8.0%	0	-9%	·
Cn1c(=O)cc2c3c(c(N4CCCCC4)ccc31)C(=O)c1ccccc1-2	7%	?	-6%	-2.3%	-16	-6%	3
O/N=C\c1cccn1-c1ccc(Br)cc1	0%	3.9	?	-0.3%	-28	5%	3
CS(=O)(=O)N1CCC(C(=O)Nc2cccc(C(F)(F)F)c2)CC1	0%	3.4	-20%	0.2%	-12	-2%	16
COc1ccc(C(C)=O)cc1COc1cc(C)c(Cl)c(C)c1	-7%	0.8	3%	-0.1%	-19	0%	4
O=C(O)CCC(=O)NCCn1c(-c2ccccc2)csc1=Nc1ccccc1	?	-0.8	-8%	1.5%	-1&-5	-5%&-8%	0
O=C(N/N=C/c1ccncc1)c1ccccc1OCc1ccc(Br)cc1	-2%[15.4 µM]	5.1	-3%	·	-13	-14%	-3
O=S(=O)(N[C@H](CO)Cc1ccccc1)c1ccc(Br)cc1F	·	·	·	-1.7%	-6	2%	·
Nc1nc(SCC(=O)Nc2ccc(Cl)cn2)n[nH]1	8%[15.4 µM]	-0.2	1%	·	-4	1%	14
CC(C)(C)c1cc(C(=O)N/N=C/c2ccccc2O)n(-c2ccccc2)n1	6%	·	2%	1.5%	0	7%	-9
CCCCN(C)C(=O)CC(NS(=O)(=O)c1ccc(NC(C)=O)cc1)C(C)C (stereo not given)	-10%[15.4 µM]	4.7	15%	1.1%	7	2%	4
CC(=O)c1ccc(-n2c(C)c(C(C)=O)c3cc(O)ccc32)cc1	13%	3.1	2%	·	3	15%	16
CCCn1c(SCC(N)=O)nnc1-c1ccco1	16%	-0.9	0%	-0.8%	-4	7%	26
CCOC(=O)c1c(N)sn(-c2ccccc2)c1=S	-19%	0.2	1%	0.8%	?	-1%	6
O=C(N/N=C/c1ccncc1)C12CC3CC(CC(C3)C1)C2	4%[15.4 µM]	-8.5	17%	·	-21	2%	-20
CCCCN1C(C)=CC(=C2C(=O)c3ccccc3C2=O)C=C1C	8%[15.4 µM]	-0.5	8%	·	-5	0%	-7
COC(=O)c1cc(NC(=O)Nc2cccc(Cl)c2)ccc1Cl	-4%	3.1	-6%	-6.1%	-13	25µM*	21
CCn1c(SCC(=O)NCCc2ccccc2)nnc1-c1cccs1	?	-2.5	4%	-4.4%	-14	9%	-4
CCc1ccccc1NC(=O)/C(C#N)=C\c1ccc(Sc2ccccc2)o1	3%	?	4%	-2.0%	-3	-16%	4
N#Cc1ccc(OCCOCCNC2CCCC2)cc1	-1%	6.4	-5%	·	-18	3%	-9
C[C@@H]1CN([C@@H](C)CO)C(=O)CCCn2nncc2CO[C@H]1CN(C)S(C)(=O)=O	-49%	·	·	2.6%	7	·	·
CCCC(=O)NC(c1ccc(Cl)cc1Cl)c1ccc2cccnc2c1O (stereo not given)	-19%	3.1	26%	·	2	-6%	1
O=C(Cc1ccc(F)cc1)N1CCN(c2ccc([N+](=O)[O-])cc2)CC1	-13%	4.6	18%	1.1%	16	-12%	-21
N#C/C(=C\c1ccco1)c1nc2ccccc2s1	-4%[15.4 µM]	?	5%	0.9%	-9	?	-4
Cc1ccc(/C=C2/SC(=S)N(CCC(=O)NCCCN3CCOCC3)C2=O)cc1	-38%[15.4 µM]	1.9	9%	-2.4%	-8	3%	2
COc1cc(Cl)ccc1OCc1cc(C(=O)NC2CCc3ccccc32)no1 (stereo not given)	-41%[inhibitor]	·	9%	3.5%	9	7%	11
CN1C(=O)c2ccc(C(=O)NC3CCCCC3)cc2C1=O	26%	-0.7	10%	1.2%	6	10%	2
COc1cccc(C(=O)NC(=S)Nn2cnnc2)c1OC	-5%[15.4 µM]	-0.2	22µM*	·	-3	8%	9
CCC(=O)Nc1ccc(N2CCN(Cc3ccccc3F)CC2)cc1	-11%	-4.4	-2%	-3.9%	-17	2%	9
CCn1c(=O)c(C(=O)Nc2cccnc2)c(O)c2ccccc21	13%	·	·	-0.1%	2	3%	·
Cc1cc(NC(=O)CSCC(=O)OCC(=O)c2cccc(Br)c2)no1	?	·	·	-2.3%	-8	-4%	4
CN(Cc1ccccc1)C(=O)Nc1ccc(Cl)cc1	-31%[inhibitor]	·	·	-1.0%	-9	-3%	·
CNc1nc(-c2c[nH]c3ccccc23)cs1	11%	5.6	56µM*	-5.4%	-12	-28%	-4

Further structures follow.
smiles	gsp ag	Menin MLL FP FL	Sfp PPTase inh	ClpP mod	D2 PAM	gsp antagonist	TRPV1 PAM
c1cc(-c2cn(C[C@H]3CC[C@@H]([C@@H]4CC[C@H](Cn5cc(-c6ccsc6)nn5)O4)O3)nn2)cs1	3%	-0.3	10%	2.2%	-1	-24%	-6
COc1ccc(N(CC(=O)NCc2ccc(F)cc2)C(=O)Cn2nnc(-c3ccc(C)o3)n2)cc1OC	10%	1.1	14%	·	-6	-4%	-14
CCOc1ncccc1C(=O)Nc1nc(C(C)(C)C)cs1	10%	-0.9	5%	-2.6%	?	-7%	25
COc1ccccc1CC(=O)Nc1ccc(S(=O)(=O)N2CCCCC2)cc1	10%[15.4 µM]	-2.0	-7%	·	6	-4%	-10
COc1ccccc1NS(=O)(=O)c1ccc2oc(SCc3ccc(C#N)cc3)nc2c1	-2%	3.8	4%	1.6%	3	-1%	-7
Cc1ccc(OCCOCCNC(C)(C)C)c([N+](=O)[O-])c1	-13%[15.4 µM]	·	-1%	3.5%	-23	15%	8
Cc1cccc(OCc2nnc(SC(C)C(=O)Nc3ccc(N4CCOCC4)cc3)o2)c1 (stereo not given)	-9%	·	·	·	1	3%	·
C=CCn1c(N)cc(=O)nc1SC(C)C(=O)Nc1cccc2ccccc12 (stereo not given)	?	0.5	9%	-5.5%	-2	-7%	8
Cc1ccc(N(CCC(=O)O)S(=O)(=O)c2cccc(C(F)(F)F)c2)cc1	-9%[15.4 µM]	1.5	22%	32µM*	-6	-9%	4
Cn1c(=O)c2c(=O)cc(NNC(=O)C(C)(C)C)[nH]c2n(C)c1=O	27%	0.3	7%	-4.1%	-6	10%	5
Cc1ccc(NC(=O)CCN2C(=O)NC3(CCCC3)C2=O)c(C)c1	6%	·	·	-2.9%	-7	11%	2
COc1cccc(-c2nc(-c3ccc(NC(=O)c4cccs4)cc3)no2)c1	-30%	-0.3	9%	41%	16	0%	1
CC(NC(=O)CNC(=O)c1ccccc1Br)c1cccs1 (stereo not given)	-9%[15.4 µM]	·	·	·	2	3%	21
CCn1c(=O)c2cc(C(=O)NCCN3CCOCC3)sc2c2ccccc21	-46%[inhibitor]	2.0	8%	4.3%	-11	8%	·
O=C(c1cccs1)N1CCN(Cc2cn[nH]c2-c2ccc(F)cc2F)CC1	20%	1.3	8%	0.6%	7	-2%	3
O=C(CCc1nnc(COc2ccccc2)o1)NC1(c2ccccc2)CC1	-8%	1.3	14%	-1.2%	-9	3%	1
CCOC(=O)C(Cc1ccc(N)cc1)N1C(=O)c2ccccc2C1=O (stereo not given)	-24%	1.1	14%	0.5%	-27	-13%	27
O=C(CN1C(=O)NC2(CCCC2)C1=O)Nc1ccc(S(=O)(=O)N2CCOCC2)cc1	-1%[15.4 µM]	4.1	3%	·	-2	13%	12

Source: PubChem BioAssay

Compounds as they come; 5.1% or so of the library scored in one or more.
